# From PubChem
# NPR1 antag – antagonists of human natriuretic peptide receptor Npr1 | P16066 | HEK293 hNpr1 GloSensor cGMP, ANP-stimulated luminescence | Potency, µM (top dose mostly 46.3 µM), for the others: top-dose activity change, negative = inhibition, actives largely listed as inhibitors | 76,000 compounds, 1.6% hits | AID 1347048; active = well fitted inhibition curve with a large enough effect; inconclusive = small, poorly fitted or top-dose-only effect; inactive = no such curve, though single readings can be large or run the other way;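 note: nearly all actives have a fitted effect of over 60% in size; nearly all hits also lower the signal before the agonist is added; a reference antagonist and vehicle were the controls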
# Target sequence (P16066 whole entry, looked up): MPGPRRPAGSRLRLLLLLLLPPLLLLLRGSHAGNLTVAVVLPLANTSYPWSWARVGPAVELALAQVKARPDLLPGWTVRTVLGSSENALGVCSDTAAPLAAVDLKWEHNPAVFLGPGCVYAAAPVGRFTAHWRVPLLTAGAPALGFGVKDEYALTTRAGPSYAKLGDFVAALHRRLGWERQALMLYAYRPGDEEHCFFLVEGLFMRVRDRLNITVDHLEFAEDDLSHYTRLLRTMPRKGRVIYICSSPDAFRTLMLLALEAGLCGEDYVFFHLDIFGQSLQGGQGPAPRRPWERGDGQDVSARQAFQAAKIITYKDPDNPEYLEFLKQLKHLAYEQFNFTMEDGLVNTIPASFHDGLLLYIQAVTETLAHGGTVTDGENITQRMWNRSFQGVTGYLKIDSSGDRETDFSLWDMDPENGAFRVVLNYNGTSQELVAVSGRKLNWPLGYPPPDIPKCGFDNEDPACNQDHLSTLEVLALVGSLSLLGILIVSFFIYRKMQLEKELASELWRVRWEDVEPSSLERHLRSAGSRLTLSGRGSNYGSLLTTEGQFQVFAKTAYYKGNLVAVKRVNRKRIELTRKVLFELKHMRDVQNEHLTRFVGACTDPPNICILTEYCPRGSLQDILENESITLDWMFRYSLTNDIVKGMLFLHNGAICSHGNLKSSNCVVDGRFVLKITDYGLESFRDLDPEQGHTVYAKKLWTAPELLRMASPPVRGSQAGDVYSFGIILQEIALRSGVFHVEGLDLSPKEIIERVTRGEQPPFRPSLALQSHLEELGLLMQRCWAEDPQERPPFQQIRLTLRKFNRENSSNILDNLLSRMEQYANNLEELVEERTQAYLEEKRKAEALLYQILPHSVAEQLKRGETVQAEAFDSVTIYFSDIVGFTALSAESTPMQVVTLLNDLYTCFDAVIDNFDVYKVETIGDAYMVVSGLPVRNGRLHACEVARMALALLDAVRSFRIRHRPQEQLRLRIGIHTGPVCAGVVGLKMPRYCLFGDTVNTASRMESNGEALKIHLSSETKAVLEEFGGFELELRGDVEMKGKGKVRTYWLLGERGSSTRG
#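 HEK293 cells stably expressing human Npr1 and cGMP GloSensor pGS-40F, loaded 2 h with 2% GloSensor reagent, given compound 30 min at room temperature. Luminescence read before and 20 min after 0.1 nM hNppA.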
# The depositor's hits bear a star; ? = inconclusive; [ ] = another dose, or the depositor's remark. % is set by controls: 0 for no effect and ±100 for the full control effect; potency is the fitted concentration of half-maximal effect. This is a subset. The share of hits here may be higher or lower than overall.
SMILES,NPR1 antag
COC(=O)N1CCC2(CC1)C(=O)NN=C2c1ccccn1,-15%[70.6 µM]
O=C1NCCCCCN(C(=O)COc2ccc(F)cc2)[C@H]2CCC[C@@H]12,0%
COc1ccc(C(CC(=O)N2CCCC2)c2ccccc2)cc1 (stereo unspecified),-19%
O=C(NCCCN1CCCCC1)c1cccnc1N1CC2CC(C1)[C@H]1CCCC(=O)N1C2 (stereo partly specified),-2%
CCC(=O)Nc1cccc(C2OC(=O)N(Cc3ccc(C)cc3)C2C(=O)Nc2ccc(F)cc2)c1 (stereo unspecified),-7%
Cc1nn(-c2ccc(C(F)(F)F)cc2)c(C)c1[C@@H]1C=C[C@@H](NC(=O)CCCC(=O)O)C1,-1%
COCc1nc(C2CCCN(C(=O)NCCC(C)C)C2)no1 (stereo unspecified),0%
Cn1cc(CN2CCN3C(=O)N(C4CCOCC4)C[C@H]3C2)cn1,5%[70.6 µM]
CN(CCCNC(=O)CCC[C@H]1NC[C@@H]2C[C@H]1CN(Cc1ccccc1)C2)C1CCCCC1,-3%
CN1CCN(C(=O)c2ccc(-c3ccc(N4CCCCC4)nc3)cc2)CC1,-2%
Cc1c(CN(C)C(=O)c2cc(COc3ccccc3F)[nH]n2)cnn1C,3%
COCCOC1CN(C2CCN(Cc3ccccc3)CC2)C12CCCCC2 (stereo unspecified),-13%
Cn1ccc2c(C(=O)NCCc3cnc[nH]3)nc(-c3cccc(CO)c3)cc21,-9%[70.6 µM]
COc1ccccc1-c1cnc(Nc2ccc(Cl)cn2)c2c1CCO2,-23%[70.6 µM]
Cc1ccc(C)c(C(=O)NCc2nnc3cc(-c4nc(C)no4)ccn23)c1,3%
O=C(NCc1nnc2c(-c3nc(C4CC4)no3)cccn12)c1cc(F)ccc1F,-7%
C=CCNc1nc(C)nc2c1CCN(C(=O)Cc1nnc(N)s1)CC2,-4%
Cc1ccccc1Oc1ncccc1CNC(=O)C(C)(C)n1cccc1,4%
Cc1ccc(CNC(=O)C2(C)CCCCC(=O)N2)o1 (stereo unspecified),2%
CN1C(=O)CC(C(=O)O)C12CCN(Cc1cccc(OC(F)F)c1)CC2 (stereo unspecified),-1%
O=[N+]([O-])c1cccc(-c2noc([C@@H]3Cc4nc[nH]c4CN3Cc3ccc(F)cc3)n2)c1,?
COc1ccc(C(=O)N2C[C@@H]3C[C@H](C2)c2c(NC(=O)c4ccc5c(c4)OCO5)ccc(=O)n2C3)cc1,6%
CCN1CCC2(CCC1=O)CN(C(=O)c1ccc(CSC)o1)CCN2C (stereo unspecified),1%
Cc1ccc(CN2CC(Oc3ccccc3C(=O)NC3CC3)C2)cc1,-2%
Cc1ccc(NC(=O)CC2CCCN(c3cnn(C)c(=O)c3)C2)cc1F (stereo unspecified),-5%
Cc1cc(-c2ccnc(-c3nnc(C)n3CCc3ccccc3)c2)ccn1,-11%[70.6 µM]
O=C1OCC2(CCN([S+](=O)([O-])c3ccc(C(F)(F)F)cc3)C2)N1Cc1ccccn1 (stereo unspecified),3%
CCc1noc([C@@H]2CC(F)(F)CN2C(=O)c2occc2C)n1,0%
CC(C)NC(=O)N1CC(C(=O)NCC2CC2)CC(c2ccccc2)C1 (stereo unspecified),6%
CCc1nc2c(c(-c3ccc(Cl)cc3)n1)CCN(CCC(C)C)CC2,-1%
O=C(NCc1ccc(F)cc1)N1CCCC(Cc2nncn2-c2ccccc2)C1 (stereo unspecified),-9%
CCNC(=O)c1ccc(CC2CCN(C(C)=O)CC2)cc1,0%
O=C(c1cccs1)N1CCCC(n2cc(-c3nc(C4CC4)no3)nn2)C1 (stereo unspecified),-6%
COc1cc(NC(=O)NC[C@H]2O[C@@H](CO)[C@@H](O)[C@H]2N(C)CCN(C)C)cc(OC)c1,6%
COCCCn1c(C)cnc1C1CCN(C(=O)C2(c3ccc(OC)cc3)CC2)C1 (stereo unspecified),3%
CN1Cc2ncnc(N3CCOCC3)c2CN(C2CCCCC2)C1=O,-9%[70.6 µM]
Cc1csc(C(C)N(C)C(=O)c2cc(Cn3nc(C)cc3C)[nH]n2)n1 (stereo unspecified),10%
COc1ccc(OC)c(CN2CCC3(CC2)COCCN3C(=O)OCc2ccccc2)c1,-21%
Cc1noc(-c2ccn3c(CNC(=O)c4cc5ccccc5[nH]4)nnc3c2)n1,10%
Cc1cnc(C(=O)NC2C[C@H]3CC[C@@H](C2)N3C(=O)CCC2CCCC2)cn1 (stereo partly specified),?

# Given with tabs: entries from further up
compound	NPR1 antag
CN1C(=O)CC(C(=O)O)C12CCN(Cc1cccc(OC(F)F)c1)CC2 (stereo unspecified)	-1%
O=[N+]([O-])c1cccc(-c2noc([C@@H]3Cc4nc[nH]c4CN3Cc3ccc(F)cc3)n2)c1	?
COc1ccc(C(=O)N2C[C@@H]3C[C@H](C2)c2c(NC(=O)c4ccc5c(c4)OCO5)ccc(=O)n2C3)cc1	6%
CCN1CCC2(CCC1=O)CN(C(=O)c1ccc(CSC)o1)CCN2C (stereo unspecified)	1%

# Further compounds
SMILES,NPR1 antag
CC1(CCCCN2CCOCC2)COc2ccc(C(=O)Nc3cccnc3)cc2N1 (stereo unspecified),-1%[70.6 µM]
CNC(=O)Cn1nc(C2CCN(C(=O)c3cccc(F)c3)CC2)c2c1CCOC2,5%
O=C1CC(c2ccccc2)N(C(=O)CNC(=O)Cn2c(=O)oc3ccccc32)CCCCCN1 (stereo unspecified),-3%
CCc1nc2c(c(-c3ccc(Cl)cc3)n1)CN(CC1CC1)CC2,0%[70.6 µM]
O=C(c1ccc2nccnc2c1)N1C[C@H]2CC[C@@H]1CN(C1CCOCC1)C2,6%
CN(C(=O)CN1CCC2(CC1)C(C(=O)O)CC(=O)N2C)c1ccccc1 (stereo unspecified),1%
CC1=C[C@@H](CNCc2ccccn2)[C@H](C(C)C)C[C@H]1Cc1nnc(-c2ccc(N(C)C)cc2)o1,-28%
COc1nccc(N2CCC(CC(=O)NCCCN3CCCC3=O)CC2)n1,-1%
Cc1ccc(C2=NC3(CCN(C(=O)COc4ccc(F)cc4)CC3)ON2)cc1,0%
COCCO[C@H]1C(=O)N(C2CCN(C(=O)CC(F)(F)F)CC2)[C@H]1c1ccncc1,1%
Cc1ncccc1OC1(C(=O)NCc2n[nH]c3c2CCC3)CCNCC1,8%
CCCN(CC1CCOC1)C(=O)c1cccc(Cl)c1 (stereo unspecified),-1%
CC(C)N1CCN(C2CCN(c3ccc4c(c3)CCC4)CC2)CC1CCO (stereo unspecified),-1%
O=C(c1cccc(F)c1)N1CCC(c2nc(C3CCOCC3)no2)C1 (stereo unspecified),13%
COc1ccc(C(=O)NCc2nnc3ccc(-c4ccc(C)c(C)c4)nn23)cc1OC,-1%
O=C1COc2ccc(-c3ccc(F)cc3)nc2CN1Cc1ccccc1F,-22%[70.6 µM]
COCc1cc(=O)n(CC(=O)Nc2ccccc2F)c(N2CCOCC2)n1,0%
COc1cccc(C(=O)N[C@@H]2CN(c3ccccn3)C[C@H]2CN(C)C)c1OC,0%
O=C1Nc2ccc(-c3cccc(C(F)(F)F)c3)cc2C(=O)N2CCN(C(=O)c3ccco3)C[C@@H]12,-19%
Cn1cc(-c2cnc3[nH]cc(CC(=O)N4CCCC4)c3c2)cn1,9%[70.6 µM]
CN1c2cc(C(=O)Nc3ccc4c(c3)OCCO4)ccc2C(=O)N2CCCC21 (stereo unspecified),-12%
CCNC(=O)N1CCC(Cc2ncc(C)n2Cc2ccc(F)cc2)CC1,-13%
Cc1ccccc1S(=O)(=O)N1CCN(C2CCN(CCc3ccccc3)C2=O)CC1 (stereo unspecified),0%
O=C(NCc1ccc(F)c(F)c1)C1CCC(=O)N(CC2CCCCC2)C1 (stereo unspecified),5%
Cc1nn(-c2ccccc2[N+](=O)[O-])c(C)c1[C@@H]1C=C[C@@H](NC(=O)CC(C)(C)CC(=O)O)C1,0%
CO[C@H]1[C@H](NC(=O)c2c(F)ccc(C)c2F)c2ccccc2C12CCNCC2,-2%
COc1cccc(C(O)c2nc(C(=O)NC3CCN(C)CC3)c(C)o2)c1 (stereo unspecified),-2%[70.6 µM]
CCN(Cc1ccccc1)C(=O)CC1CCCN(c2cnn(CC3CC3)c(=O)c2)C1 (stereo unspecified),1%
CCCn1nccc1S(=O)(=O)N1CCc2nc(-c3ccccc3)[nH]c2C1,-4%
CCCc1noc(-c2cccn3c(CNC(=O)c4cccc(F)c4)nnc23)n1,5%
Cc1nc(C2CC(O)C2)cc(N2CCC(Oc3ncccn3)CC2)n1 (stereo unspecified),-2%
CN1c2cccnc2CN(CC2CCCCC2)CC[C@H]1CO,-2%[70.6 µM]
CN1CCC(C2CCNC2)CC1 (stereo unspecified),0%
CN1C(=O)CCC2(CNC(=O)c3cn[nH]c3-c3ccccc3)CCC=C12 (stereo unspecified),-1%
Cc1cccc(NC(=O)CN2C(=O)NC(c3ccccc3Cl)C3=C2COC3=O)c1 (stereo unspecified),-16%
CN(C)C(=O)N1CCCC(CCc2ccccc2C(F)(F)F)C1 (stereo unspecified),6%
C#CCNC(=O)C1COC2(CCCCC2)N1C(=O)c1cccc(F)c1 (stereo unspecified),2%
CN1CCCN(C(=O)[C@H]2C[C@@](C)(C(=O)O)N(C)[C@H]2c2ccccc2Cl)CC1,-4%
COc1ccccc1CC(=O)N1CCCc2ncc(C(=O)N3CCCC[C@@H]3c3ccccc3)cc21,-2%
O=C(c1cccnc1)N1CCC12Cc1ccccc1NC2=O (stereo unspecified),-1%[70.6 µM]

# Pulled by compound from the list above, seven records:
SMILES,NPR1 antag
CN1CCCN(C(=O)[C@H]2C[C@@](C)(C(=O)O)N(C)[C@H]2c2ccccc2Cl)CC1,-4%
O=C(c1cccnc1)N1CCC12Cc1ccccc1NC2=O (stereo unspecified),-1%[70.6 µM]
CN1C(=O)CCC2(CNC(=O)c3cn[nH]c3-c3ccccc3)CCC=C12 (stereo unspecified),-1%
Cc1nc(C2CC(O)C2)cc(N2CCC(Oc3ncccn3)CC2)n1 (stereo unspecified),-2%
Cc1cccc(NC(=O)CN2C(=O)NC(c3ccccc3Cl)C3=C2COC3=O)c1 (stereo unspecified),-16%
C#CCNC(=O)C1COC2(CCCCC2)N1C(=O)c1cccc(F)c1 (stereo unspecified),2%
CN1c2cccnc2CN(CC2CCCCC2)CC[C@H]1CO,-2%[70.6 µM]

# (listing goes on)
SMILES,NPR1 antag
CCn1c2c(c(=O)n1Cc1ccccc1)CCN(C(=O)C1CCCO1)C2 (stereo unspecified),0%[70.6 µM]
Cc1ccccc1-c1nccn2c(C3CN(Cc4ccc(O)cc4)C3)ncc12,4%[70.6 µM]
COc1ccc(CN2C[C@H]3CN(Cc4c[nH]c5ccccc45)CCN3C2=O)cc1,-5%[70.6 µM]
COc1ccc(-c2nnc3n2CCN([S+](=O)([O-])c2ccc(C)cc2)C3)cc1,-1%
CCOc1ccccc1C1NC(=O)N(CC(=O)Nc2ccc(C(C)=O)cc2)C2=C1C(=O)OC2 (stereo unspecified),5%
O=C(Nc1ccc(-c2nnc3n2CCCC3)cc1)Nc1cccc(Cl)c1,1%
COCc1cn(C[C@H]2C[C@@H](NCc3cccnc3)[C@H](O)[C@@H]2O)nn1,5%[70.6 µM]
O=C1NCCCCCCN(Cc2ccncc2)[C@@H]2CN(C(=O)NC3CCCCC3)CC[C@@H]12,-8%
COc1ccccc1NC(=O)Cn1nc2c(cc1=O)CN(C(C)=O)CC2,-1%
COC(=O)N1CCc2nc(-c3ccccc3)nc(-c3ccc(Cl)cc3)c2C1,-21%
COCCC(=O)Nc1cccnc1OC1CCN(C)C1 (stereo unspecified),2%
CC(C)n1cccc1C(=O)N1CC[C@H](N2CCN(C)CC2)[C@H](CCC(=O)O)C1,2%
Cc1ccc(F)c(C(=O)NC(C)c2cnn(-c3ccccc3)c2C)c1Cl (stereo unspecified),-1%
Cc1cc(C(=O)N2CCC3(CC2)CC(N(Cc2ccccc2)C2CC2)CCO3)n(C)n1 (stereo unspecified),-23%
CC(=O)N1CCC2(CC1)C(=O)NCN2Cc1ccc(Cl)cc1,0%[70.6 µM]
O=C1N[C@H](CCC(=O)N2CCN(CCc3ccncc3)CC2)C(=O)Nc2ccccc21,-3%
O=C(COc1ccccc1)N1CCC(c2nc(C3CCOCC3)no2)C1 (stereo unspecified),19%
COc1ccc(-c2ccc3c(n2)CN(Cc2ccc(F)cc2)C(=O)CO3)cc1,?
Cc1ccccc1CNC(=O)CC1CCCN(c2cnn(CC3CC3)c(=O)c2)C1 (stereo unspecified),1%
CO[C@H]1C(=O)N(C2CCN(S(=O)(=O)c3cccs3)CC2)[C@H]1c1ccncc1,7%
COCCNS(=O)(=O)c1cc(C(=O)O)cc(-c2ccc(N(C)C)nc2)c1,-1%
Cc1ncoc1C(=O)N(C)C1CCc2nn(CC3CC3)c(=O)n2CC1 (stereo unspecified),5%
N#Cc1ccc(CNC2(Cc3cc(-c4ccc(F)cc4)on3)COC2)cc1,-7%[70.6 µM]
CC(C)(C)CN1CC(NS(=O)(=O)c2cccc(Cl)c2)CC1=O (stereo unspecified),-12%
Cc1ccc(NC(=O)Cn2ccn3nc4c(c3c2=O)CCCCC4)c(C)c1,-2%
O=C(NCCCn1cccn1)c1c(OCC2CC2)cc(=O)n2c1CCCCC2,0%
O=C(Cn1nc(-c2ccccc2)n(CCc2ccccc2)c1=O)NC1CC1,-2%
CC1CCCN(C(=O)c2ccc(CN3C(=O)NC4(CCS(=O)(=O)CC4)C3=O)cc2)C1 (stereo unspecified),-1%
COCCNc1nc(C)nc2c1CCN(C(=O)c1ccoc1)CC2,5%
Cn1ccnc1CN1CCN(CC2(O)CNCCOC2)CC1 (stereo unspecified),3%
